# Source: PubChem
# PINK1 modulator = modulators of PINK1 expression | PINK1 immunofluorescence, high-content cytometry, 24 h | Potency, µM (highest dose often 76.6 µM), inactives show at the highest dose activation (PINK1 increase), actives largely listed as activators | 410,000 tested, 0.2% active | AID 624263; active = well fitted activation curve with a large enough effect; inconclusive = small, poorly fitted or top-dose-only effect; inactive = flat fitted curve, though single readings scatter; cell line not stated here;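 further: potency means the concentration at half of the fitted maximal effect; % of control where 0% means no effect; nearly all actives have a fitted effect of over 65% in size; a mitochondrial uncoupler was the plate control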
#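 Stable cell line treated 24 h with compounds at 5 concentrations (CCCP controls), then fixed and immunostained for PINK1 plus nuclear and cell stains; PINK1 immunofluorescence quantified by laser-scanning microplate cytometry.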
# D2 agonist = agonists of human D2 dopamine receptor (beta-arrestin); P14416; DiscoveRx PathHunter D2 beta-arrestin, luminescence, 90 min; 100% = 57 uM dopamine signal; activation, % (no concentration beside the values); 360,000 tested, 0.084% active; in the data active = activation above about 40%; inconclusive = about 15% to 40%; inactive = below about 15%; further: compound concentration not given in the record; the text of the record calls up to 30% inactive
# Target sequence (P14416 whole entry, looked up): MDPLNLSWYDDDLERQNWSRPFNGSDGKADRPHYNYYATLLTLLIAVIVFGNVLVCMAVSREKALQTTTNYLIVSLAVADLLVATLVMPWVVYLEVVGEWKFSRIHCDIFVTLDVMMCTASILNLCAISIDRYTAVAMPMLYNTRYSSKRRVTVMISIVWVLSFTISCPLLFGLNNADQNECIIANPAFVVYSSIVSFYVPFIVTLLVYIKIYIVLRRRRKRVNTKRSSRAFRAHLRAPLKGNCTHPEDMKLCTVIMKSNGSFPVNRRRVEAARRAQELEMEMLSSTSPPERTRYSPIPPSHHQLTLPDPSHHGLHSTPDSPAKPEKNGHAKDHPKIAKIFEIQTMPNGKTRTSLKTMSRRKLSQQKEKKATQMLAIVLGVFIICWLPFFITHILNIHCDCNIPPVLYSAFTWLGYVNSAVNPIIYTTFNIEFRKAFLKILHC
#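 DiscoveRx PathHunter D2 beta-arrestin cells (2,100/well) attached overnight, then compound-stimulated 90 min at 37 C in HBSS/10 mM HEPES/0.1% Tween-20 buffer; beta-galactosidase complementation read by luminescence after 1 h at ambient temperature. Dopamine 57 uM final (EC100) as control.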
# gsp agonist = activates gsp, the McCune-Albright syndrome mutation | gsp mutant cells, cAMP HTRF, 30 min; control for the full effect not named in the record | Potency, µM (series often up to 76.9 µM), inactives show at the highest dose activation (cAMP increase), usual class: activators | 340,000 tested, 0.13% active | AID 624287; active = well fitted activation curve with a large enough effect; inconclusive = small, poorly fitted or top-dose-only effect, or another doubt; inactive = no such curve, though single readings can be large or run the other way; cell line not stated here;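 further: phosphodiesterase inhibitor Ro 20-1724 added with compounds to block cAMP breakdown; potency means the concentration at half of the fitted maximal effect; nearly all actives have a fitted effect of over 60% in size; about a fifth of the inactives were tested at one dose only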
#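 Cells stably selected in G418 were plated at 2000/well, grown 16-24 hr, then given compounds in DMSO with the PDE inhibitor […] (300 uM solution added) for 30 min at 37C; cAMP was read by HTRF.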
# Menin-MLL FL inh = menin-MLL binding inhibition, fluorescein peptide | 290,000 tested, under 10 active | Fluorescence polarization, fluorescein-MLL peptide displacement from menin | FP activity change, % at 61.4 µM | AID 1766; inconclusive = falling polarisation curve, or a change in total fluorescence; inactive = total fluorescence flat and polarisation flat or rising; no compound was filed as active; the % refers to the polarisation; negative = inhibition;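 further: % of control where 0% means no effect; inhibitors lower the polarisation; unlabelled MLL peptide was the positive control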
# ClpP mod = qHTS Assay for Activators of ClpP; ATP-dependent Clp protease proteolytic subunit (Bacillus subtilis (strain 168)), P80244; purified B. subtilis ClpP, FRET peptide cleavage, 20 min; Potency, µM (top dose mostly 57.5 µM), for the others: at the highest dose activity change, negative = active; 340,000 tested, 1.9% active; AID 651965, 2013; active = well fitted falling curve with a large enough effect; inconclusive = small, poorly fitted or top-dose-only effect; inactive = no such curve, though single readings can be large or run the other way; further: potency means the concentration at half of the fitted maximal effect; the source files actives as falling curves though it sought activators and does not explain the sign; nearly all actives have a fitted effect of over 65% in size; many hits overshoot -100%
# Target sequence (P80244 whole entry, looked up): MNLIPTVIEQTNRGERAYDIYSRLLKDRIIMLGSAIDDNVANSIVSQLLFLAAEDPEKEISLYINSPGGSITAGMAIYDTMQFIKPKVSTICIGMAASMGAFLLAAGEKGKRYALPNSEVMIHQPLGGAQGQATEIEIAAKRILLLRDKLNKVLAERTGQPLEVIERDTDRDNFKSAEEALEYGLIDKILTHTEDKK
#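 Buffer: 100 mM Tris/HCl pH8, 100 mM KCl, 0.05% low protease BSA, 2.5% glycerol, 0.01% Tween-20. ClpP 10 microg/mL final; 20 min RT; delta FRET normalized to ADEP and DMSO controls.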
# gsp antag = gsp mutant antagonism; gsp-mutant cells, cAMP HTRF, 30 min; control for the full effect not named in the record; Potency, µM (top dose mostly 76.9 µM), without a hit: at the top dose activity change, negative = inhibition, actives largely listed as inhibitors; 340,000 tested, 0.4% active; AID 624288; active = falling curve of any shape with a large fitted effect; inconclusive = falling curve, mostly with a smaller effect; inactive = flat or rising curve; cell line not stated here;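 further: intracellular cAMP measured with PDE inhibitor Ro 20-1724 present during compound exposure; potency means the concentration at half of the fitted maximal effect; on the % scale 0 is the no-effect control and ±100 the full control effect; nearly all actives have a fitted effect of over 65% in size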
#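 HTRF cAMP read-out (cAMP-d2 plus anti-cAMP antibody-K in lysis buffer, 30 min RT). Before lysis, cells are exposed to compounds with […] for 30 min at 37C in DPBS containing Ca/Mg, BSA and Tween 20.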
# Sfp inh = inhibitors of Bacillus subtilis Sfp phosphopantetheinyl transferase; Q9F4F7; Biochemical Sfp PPTase activity, qHTS; Potency, µM, without a hit: max response, negative = inhibition, most hits filed as inhibitors; 310,000 tested, 3.5% active; active means well fitted inhibition curve with a large enough effect; inconclusive means small, poorly fitted or top-dose-only effect, or another doubt; inactive means no such curve, though single readings can be large or run the other way;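 further: the enzyme is Sfp with the accession as filed and its product quenches rhodamine fluorescence; potency means the concentration at half of the fitted maximal effect; 0% = enzyme reaction without inhibitor and -100% = no enzyme wells; top concentration of the series not given in the record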
#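 With Hepes-Na pH 7.6 buffer containing 10 mM MgCl2, Sfp (15 nM) modified BHQ-2-YbbR (12.5 uM) using rhodamine-CoA (5 uM). Two reads 30 minutes apart at 525/598 nm yielded each well's rate.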
# * = called active by the depositor; ? = inconclusive; / = not tested or not shown; & = joins results of further samples; [ ] = dose if it differs, or a comment.
SMILES,PINK1 modulator,D2 agonist,gsp agonist,Menin-MLL FL inh,ClpP mod,gsp antag,Sfp inh
CCOc1cc2[nH]c(=S)n(CCCC(=O)NCc3ccco3)c(=O)c2cc1OCC,5.2%[38.3 µM],-0.1,28.6%,0.6,-4.6%,11.5%,7.8%
CC(OC(=O)c1cc(S(=O)(=O)Nc2ccc(F)cc2)ccc1Cl)C(=O)Nc1ccc2c(c1)OCCO2 (stereo unspecified),13.9%,-0.3,-35.8%[inhibitor],7.2,-4.6%,-3.3%,18.6%
CC(C)C(=O)OCC(=O)NCc1ccccc1Cl,-1.1%,-6.3,-17.9%[15.4 µM],2.5,/,7.6%,24.2%
O=C(c1ccccc1)N1CCN(C2CCCCCC2)CC1,-2.9%,2.9,0.1%,-1.7,-1.9%,6.3%,-13.6%
CCOc1ccc(NC(=S)N(Cc2ccc(Cl)cc2)Cc2ccco2)cc1,2.5%[38.3 µM],-2.2,11.6%,0.3,0.1%,-14.4%,?
CCC1(O)C(=O)OCc2c1cc1n(c2=O)Cc2cc3cc(O)ccc3nc2-1 (stereo unspecified),3.9%,-6.5,/,/,4.3%,13.1%,/
C[C@@H]1CN([C@H](C)CO)C(=O)CCCn2cc(nn2)CO[C@H]1CN(C)C(=O)Nc1ccnc(N2CCOCC2)c1,2.2%,-8.3,?,/,-2.0%,/,/
Cc1[nH]c2ccc(C(=O)N3CCN(c4cccc(Cl)c4)CC3)cc2c1C,19.2%,1.0,-9.9%,-0.8,-1.5%,23.0%,-0.8%
COc1cc(OC)cc(C(=O)Nc2cc(NC(=O)c3ccco3)ccc2OC)c1,5.3%,-1.8,3.3%,3.5,-0.7%,-14.3%,-3.2%
COC(=O)c1cc(-c2ccccc2)n[nH]1,0.9%,-4.0,-19.2%,0.4,0.3%,-1.5%,-4.8%
COC(=O)CC1C(=O)NCCN1C(=O)CSc1nc2ccccc2s1 (stereo unspecified),0.2%,-3.2,-2.9%[15.4 µM],0.2,/,6.3%,70.8µM*
O=C(NCCOC(=O)c1ccc(Cl)c(S(=O)(=O)N2CCCCC2)c1)c1ccncc1,-0.6%,-1.1,14.6%,8.9,-7.1%,39.8µM*,2.7%
N#CCCn1cc(C(=O)NCc2ccccc2)c(-c2cccs2)n1,0.5%,0.3,?,-0.7,/,2.5%,2.3%
CCOC(=O)c1nnn(-c2nonc2N)c1CSc1nnc(N)s1,-2.0%,1.3,-2.5%,-1.1,/,1.6%,5.8%
O=C(NCc1ccccc1)c1c[nH]c2cc3c(cc2c1=O)OCCO3,?,2.9,14.4%,2.5,?,7.9%,17.8%
Cc1c(CN2CCC(Oc3ccc(C(=O)N4CCCCC4)cc3)CC2)cnn1C,0.8%,-2.1,-0.2%[15.4 µM],/,0.4%,5.9%,12.4%
COc1ccc2c(Cl)cc(NC(=O)Nc3c(C)cccc3C)nc2c1,?,-4.8,?,/,-2.8%,/,/
Nc1nc(NCCN2CCOCC2)nc(NCc2ccccc2)c1[N+](=O)[O-],-0.8%,-2.2,-5.1%,6.3,-4.0%,6.9%,5.9%
CC(C)(C)c1cc(NC(=O)c2cc(F)c(F)c(F)c2F)no1,-0.9%,-2.0,-24.9%,1.7,-0.3%,8.5%,15.3%
Cc1cc(C)n(-c2ccc(C(=O)NCc3ccc(F)cc3)cc2)n1,1.4%,-2.5,-0.6%,-5.1,/,-0.1%,5.6%
C=CCOc1ccc(C2c3c(oc4ccccc4c3=O)C(=O)N2CCCN2CCOCC2)cc1 (stereo unspecified),?,-0.2,-48.5%[inhibitor],3.8,-4.2%,-5.8%,-6.3%
Clc1ccc2nc(-c3ccccc3)nc(C(Cl)Cl)c2c1,-2.6%,-3.1,-5.3%[15.4 µM],1.4,/,-9.7%,13.1%
O=C(c1cc(-c2ccc(Cl)cc2Cl)on1)N1CCN(C(=O)c2ccco2)CC1,-0.5%,-1.0,-31.1%[inhibitor],?,0.3%,-20.2%,-28.7%
CC1CCN(S(=O)(=O)c2ccc3nc(N4CCN(c5ccccc5)CC4)ccc3c2)CC1,3.8%&2.0%,4.0,?,/,?,16.7%,9.3%
CN(C)/C=N/N(C)c1ncccc1[N+](=O)[O-],0.5%,0.7,7.7%[15.4 µM],-0.4,-0.6%,-6.6%,11.4%
# Other results follow:
SMILES,PINK1 modulator,D2 agonist,gsp agonist,Menin-MLL FL inh,ClpP mod,gsp antag,Sfp inh
COc1ccc(C)cc1NC(=O)CCN1CCCC1,-3.1%,-3.6,0.7%,0.6,-1.6%,9.4%,23.6%
COC(=O)CNC(=O)c1cccc(-c2ccc(OC)cc2)c1,0.5%,-6.4,-20.3%[15.4 µM],-5.4,/,-1.8%,14.5%
COc1ccc(-c2nc3cnc(OC)nc3n(Cc3cccc(OC)c3)c2=O)cc1,4.6%,/,/,0.1,/,/,22.3%
CCOC(=O)c1sc(NC(=O)CN2C(=O)NC3(CC(C)CC(C)(C)C3)C2=O)cc1C (stereo unspecified),7.2%,-7.1,4.0%[15.4 µM],/,-6.1%,-7.6%,/
O=C(/C=C/c1ccc(Cl)cc1Cl)N(Cc1ccccc1)C1CCS(=O)(=O)C1 (stereo unspecified),-1.7%,-1.8,29.4%,0.3,-0.9%,?,-0.1%
O=C(O)C1CCN(C(=O)c2ccccc2Cl)CC1,6.6%[38.3 µM],-2.1,-0.5%,-3.5,2.8%,10.7%,2.5%
COc1ccccc1N1CCN(C(=O)CSc2nnc(NC(=O)C3CC3)s2)CC1,-1.6%,-3.8,-0.3%,-0.5,0.4%,-13.0%,-2.1%
CCCCC1=C(C(=O)OCC)C(C(=O)OCC)Oc2ccccc21 (stereo unspecified),17.3%,-1.2,/,-5.4[94.6 µM],-0.8%,-6.6%,-6.2%
CCC(C)[C@H](NC(=O)NC1CCCc2ccccc21)C(=O)O (stereo partly specified),-0.8%[38.3 µM],-3.7,4.7%,6.9,-2.8%,-2.5%,21.9%
O=C(NCCCO)C(=O)Nc1cc2c3c(c1)CCC(=O)N3CCC2,-1.8%,-2.6,-8.7%,-0.8,0.3%,-4.8%,16.1%
COc1cccc(OC)c1C(=O)Nc1ccc(CN2CCOCC2)cc1,-0.2%,-5.9,-0.7%,0.1,0.1%,11.5%,2.3%
COC(=O)CNC(c1ccccc1)c1cc(Br)ccc1NC(C)=O (stereo unspecified),-1.3%,-1.8,0.7%[15.4 µM],-1.9,/,-3.3%,21.3%
CCn1c(SCC(=O)NC2CCCC2)nnc1-c1ccccn1,4.5%,1.4,-12.1%,-1.5,-0.4%,2.9%,-2.8%
CCOC(=O)C1=C(CSc2nc3c(cc2C#N)CN(C)CC3)OC(N)=C(C#N)C1c1ccncc1 (stereo unspecified),1.1%,4.1,-1.4%,?,7.9%,-12.7%,?
Cn1cccc1/C=C(\C#N)C(N)=S,-0.4%,-10.4,20.6%[15.4 µM],7.8,-0.8%,-5.5%,-3.6%
CCCc1nc2c([nH]1)c(=O)n(C)c(=O)n2C,1.8%,-1.5,2.9%,0.8,/,3.9%,11.7%
O=C1NC(=O)/C(=C\c2ccc(N3CCOCC3)o2)N1,5.5%,11.0,-2.1%,?,/,3.2%,17.8µM*
Cc1cc(C)c(C)c(S(=O)(=O)N2CCN(c3ncnc4sc(C)c(C)c34)CC2)c1C,1.2%,-3.1,-22.2%,/,0.2%,7.8%,-13.9%
COc1cc(C(=O)OCC(=O)c2cc(C)n(C)c2C)cc(OC)c1OC,6.5%,-1.5,?,0.6,-1.3%,6.8%,-19.1%
O=C1C=C(c2cccc(CO)c2)C[C@@H](c2ccc(F)cc2)C1,0.8%,-6.3,-15.1%,/,-1.2%,1.9%,/
CCOc1cccc(/C=C(\C#N)C(=O)NC2CC2)c1,1.0%,-3.6,7.0%,/,-11.4%,2.5%,/
Cc1cc(C)n(-c2n[nH]c(=O)c3ccccc23)n1,-0.1%,1.9,-3.6%,-4.0,-0.8%,2.3%,4.4%
COc1ccc(C(=O)Nc2ccc(S(=O)(=O)NC(C)(C)C)cc2)cc1[N+](=O)[O-],1.8%,-7.9,-5.1%,1.1,-2.5%,-11.7%,-4.6%
c1ccc(CSc2nnc([C@@H]3CCCN3)o2)cc1,/,-1.1,-6.1%,-1.1,0.3%,9.2%,-18.4%
COc1cccc(N=Nc2c(=O)[nH]n3c(=O)cc(C)[nH]c23)c1,0.5%,-8.4,-5.2%,2.9,1.0%,?,-11.3%
# (more compounds)
SMILES,PINK1 modulator,D2 agonist,gsp agonist,Menin-MLL FL inh,ClpP mod,gsp antag,Sfp inh
CCCCNC(=O)CN1C(=O)NC(CCc2ccccc2)C1=O (stereo unspecified),0.8%,-0.4,?,-4.6,-0.8%,7.8%,7.2%
COc1ccc(C(CC(=O)c2ccc(C)cc2)Sc2ccccc2N)cc1 (stereo unspecified),0.5%,-7.1,-16.7%,/,-0.5%,/,/
O=C(O)/C=C/c1ccc(Oc2ncccn2)cc1,-0.9%,-0.3,-3.6%,5.8,-0.4%,-1.7%,14.1%
Cc1ccc(NN=C2c3ccccc3-c3ccccc32)cc1,?,2.7,-29.6%,4.6,-0.6%,-4.3%,?
COC(=O)C1=C(Nc2ccc(C)cc2)C=C(C)C(C(=O)OC)C1c1ccc(OC)cc1 (stereo unspecified),11.3%,-3.8,14.6%,5.1,-7.3%,-0.3%,3.8%
Cc1ccc2nc(-c3ccc(SCC(=O)O)nc3)[nH]c2c1,1.1%,0.6,17.1%,2.4,?,5.2%,4.7%
N#Cc1cc2c([nH]c1=O)CCCC2,-1.6%,-3.2,22.9%,2.1,3.0%,4.2%,10.5%
COc1ccc(-n2c(SCC(=O)O)nc3sc4c(c3c2=O)CCCC4)cc1,0.8%,-4.3,?,-8.2,/,-15.0%,-2.6%
CCN1C(=O)C(O)(CC(=O)C(C)(C)C)c2cc(Br)ccc21 (stereo unspecified),-4.6%,-2.5,1.7%,-1.2,-1.4%,14.3%,20.2%
COc1ccc(C(=O)NNC(=O)C(NC(=O)c2ccccc2NC(=O)c2ccco2)C(C)C)cc1 (stereo unspecified),-1.4%,-2.4,10.7%[15.4 µM],-0.7,/,11.6%,2.0%
O=C1CCC(C(=O)N2CCN(c3ccccc3)CC2)CN1Cc1ccc(Cl)cc1 (stereo unspecified),1.1%,-0.4,20.8%,/,1.6%,/,/
O=C1Nc2ccc3sc4ccccc4c3c2C1=O,-0.5%,-7.2,0.7%[15.4 µM],2.2,0.9%,-12.0%,-9.1%
